Compound activity deposited in PubChem by several laboratories.
Mtb hypoxia rep = Mtb hypoxia fluorescent reporter inhibition. M. tuberculosis hypoxia-regulated fluorescent reporter, fluorescence. fluorescence inhibition, % (concentration not given with the values). actives 0.1% (n = 300,000). AID 1159583;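 active = 35 to 45% if threefold the growth effect, above 45% if 1.5-fold the growth effect; inactive = the rest, general growth blockers included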;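 also: wells of about 50 µL received 100 nL stock; 0% = vehicle wells and 100% = reference inhibitor wells; whole bacteria with a GFP reporter of the hypoxia response; strong numbers were not always called active; many hits fall short of the cut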
BJeLR viability = BJeLR cell viability loss; BJeLR (HRASV12) viability, CellTiter-Glo ATP luminescence, 48 h; reference of the scale not given here; inhibition, % (concentration not given with the values); actives 0.17% (n = 300,000);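 active = replicate mean above 50%; inconclusive = above 50% but judged a plate artefact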;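 also: 50 nL library stock added to about 25 µL; numbers are from one replicate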
Autofluor counter = compound fluorescence in toxin protease inhibitor counterscreen. compound autofluorescence counterscreen, microsphere flow cytometry; hits give high values. fluorescence intensity (concentration not given with the values). actives 3.1% (n = 360,000). AID 624483;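 active = at least 3 SD above the mean of all compounds, about 16000 in these data; inconclusive = too few beads counted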;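 also: 100 nL of 1 mM stock went into each well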
PrP 5UTR inh = suppresses PrP 5' UTR mRNA reporter expression. actives 0.35% (n = 340,000). cell-based PrP 5' UTR mRNA reporter, plate reader. inhibition, % (test concentration not listed);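 active = every replicate at 50% or more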;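 also: 0 = median of the neutral control wells; tested in H4 reporter cells; numbers are from one replicate; inactives centre near -14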
Sa RN4220 lethal = kills Staphylococcus aureus RN4220 | AID 1259311 | S. aureus RN4220 growth, OD600, 16 h | inhibition, % (concentration not given with the values) | actives 0.33% (n = 330,000);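 active = z-score of -3 or lower and OD600 up to 0.18 on both plates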;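 also: plate controls were untreated cells for no effect and reference antibiotic for full effect; stock transfer was 100 nL into about 80 µL; one replicate is shown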
ugtP null kill = growth inhibition of S. aureus ugtP deletion strain | growth inhibition, % (concentration not given with the values) | S. aureus RN4220 ugtP deletion, OD600 growth, 16 h; some inactives read as strong as hits | AID 1259309 | actives 0.54% (n = 330,000);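 active = z-score under -3 and OD600 up to 0.15 on both plates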;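 also: plate controls were untreated wells for no effect and antibiotic for full effect; wells of about 80 µL received 100 nL stock; the first replicate is given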
Mtb hypoxia rep growth = second read-out of Mtb hypoxia rep, no call of its own (marks repeat the call); growth inhibition, %; measured here: M. tuberculosis growth (absorbance);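 0% = vehicle and 100% = reference antibiotic; read after six days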
* marks the source's active call; other numbers are inactive results; ? = inconclusive; . = no result given; & = joins results of further samples.

SMILES	Mtb hypoxia rep	Mtb hypoxia rep growth	BJeLR viability	Autofluor counter	PrP 5UTR inh	Sa RN4220 lethal	ugtP null kill
CCOc1ccc(C=NNC(=O)COc2ccccc2-c2ccccc2)cc1	8	4	.	.	.	3.0	-9
CCCC(=O)Nc1cc(-c2nc3ncccc3o2)ccc1Cl	12	4	-4	3191	-8	4.1	6
c1ccc(CCc2nc(-c3ccccn3)no2)cc1	-2	7	-2	8483	-94	4.3	4
O=C1c2cccnc2C(Nc2ccc(Cl)cc2)N1Cc1cccs1 (configuration not stated)	8	15	-2	2741	-3	3.3	-1
COc1nccnc1NS(=O)(=O)c1ccc(NS(=O)(=O)c2ccc(NC(C)=O)cc2)cc1	7	10	-3	4149	-7	2.7	-3
CCOc1ccccc1CNS(=O)(=O)c1cc(-c2cc(C)no2)ccc1C	10	7	0	6245	-18	13	5
O=c1c2nccnc2[nH]c(=S)n1Cc1ccccc1	-8	-13	12	4663	-3	-4.4	-4
O=C(Cn1c(-c2ccccc2)noc1=O)NCc1ccccc1	10	5	6	11822	-24	10	-9
COc1ccc(CCNC(=O)C2CCN(S(=O)(=O)c3ccc(Cl)cc3)CC2)cc1OC	-7	-4	5	10836	-24	-6.8	-7
CCOC(=O)N1CCN(C(=O)C2CC(c3ccc(F)cc3)=NO2)CC1 (configuration not stated)	.	.	-8	5998	-1	-0.1	15
CCc1noc(C)c1C(=O)Nc1ccc(S(=O)(=O)N2CCC(C)CC2)cc1	-5	8	-2	5824	-10	2.5	1
COc1ccc(CC(=O)Nc2cccc(-c3ccc4nnc(C)n4n3)c2)cc1	-1	-3	10	5572	-11	0.2	-3
Cc1ccc(-c2cc(C(=O)O)c3sc(N4CCCCC4)nc3n2)cc1	2	-2	-4	2145	-17	11	-7
Cc1ccc(S(=O)(=O)Cn2nnnc2C(c2ccccc2)N2CCN(c3ccccc3)CC2)cc1 (configuration not stated)	.	.	5	4244	0	-0.8	1
CC(C)CC1C(C#N)=C(N)Oc2c1c(=O)oc1ccccc21 (configuration not stated)	6	1	-16	6295	-24	4.7	-1
NC(=O)Cc1ccc2c(c1)[nH]c1ccccc12	.	.	-5	3062	-13	.	.
COc1ccc(CCNC(=O)COC(=O)c2ccccn2)cc1	4	8	.	3925	6	1.2	8
O=C(c1ccc(Cl)cc1)N1CCN(S(=O)(=O)/C=C/c2ccccc2)CC1	-10	7	.	8997	-5	-0.1	1
CC1(NC(=O)CC(c2ccccc2)(c2ccccc2)c2ccccc2)CCN(Cc2ccc(-c3ccccc3)cc2)C1=O (configuration not stated)	2	10	.	4008	-18	1.8	0
CS/C(=N\N(C)C(N)=O)c1ccccc1	.	.	2	2078	-20	.	.
COC(=O)c1ccc(S(=O)(=O)N2CCc3ccccc3C2)cc1	6	-5	6	3484	-15	5.7	-3
COc1ccc(N2CCN(CCNC(=O)Nc3ccc(C)cc3Cl)CC2)cc1	7	8	-13	3001	-17	1.6	12
CCOC(=O)N1CCN(C(=O)CN(Cc2ccc(Cl)cc2)S(C)(=O)=O)CC1	.	.	-5	2834	14	-0.1	-3
COCCNc1nc2ccccc2nc1NS(=O)(=O)c1ccc(C)cc1C	.	.	3	2996	-24	-11	-13
O=C(OCC(=O)N1CCCC1)c1cc2c(cc1[N+](=O)[O-])OCCO2	-2	3	.	?	-13	-1.8	-3

Looked up by structure from the list above (2):
SMILES	Mtb hypoxia rep	Mtb hypoxia rep growth	BJeLR viability	Autofluor counter	PrP 5UTR inh	Sa RN4220 lethal	ugtP null kill
c1ccc(CCc2nc(-c3ccccn3)no2)cc1	-2	7	-2	8483	-94	4.3	4
COCCNc1nc2ccccc2nc1NS(=O)(=O)c1ccc(C)cc1C	.	.	3	2996	-24	-11	-13

Continued.
SMILES	Mtb hypoxia rep	Mtb hypoxia rep growth	BJeLR viability	Autofluor counter	PrP 5UTR inh	Sa RN4220 lethal	ugtP null kill
COc1ccccc1NC(=O)C(C)Nc1ccc(C)c(Cl)c1 (configuration not stated)	4	-7	.	3157	-4	-1.4	9
COc1ccc(N(C)S(=O)(=O)c2cccc(C(=O)OCC(=O)c3c(N)n(C)c(=O)n(C)c3=O)c2)cc1	14	13	.	3455	-31	8.7	1
CCn1c(SCC(=O)Nc2ccccc2C(=O)OC)nnc1-c1cccc(C)c1	4	11	0	12724	-5	-1.2	3
CC(=NNC(=O)c1cccc(Cl)c1)c1cccc(NC(=O)c2ccco2)c1	6	0	.	.	.	4.2	4
CC(=O)c1c(C)[nH]c(C(=O)OCC(=O)Nc2ccc3c(c2)OCCO3)c1C	8	-1	.	3697	-19	4.2	5
Cc1nn(-c2nc(-c3ccco3)cc(C(F)(F)F)n2)c(C)c1Cl	3	5	4	4602	-16	5.4	5
O=C(O)CC(NC(=O)C1c2ccccc2Oc2ccccc21)c1ccc(Cl)cc1 (configuration not stated)	-2	-9	0	2307	-8	2.4	21
O=S(=O)(Nc1cccc(S(=O)(=O)N2CCCCCC2)c1)c1ccc(F)cc1F	2	2	.	4438	-12	13	-4
CC(C)(C)[C@H]1COC(=O)CCCC/C=C\C[C@H](CC(=O)N(CCO)Cc2ccccc2)C(=O)N1	3	2	.	3885	-15	4.8	3
CCOCC(=O)OCC(=O)Nc1cc(OC)c([N+](=O)[O-])cc1C	3	0	-24	4969	-1	7.3	3
COc1cc(/C=N/NC(=O)c2ccoc2C)ccc1OCCN1CCCCC1	.	.	-1	4884	2	.	.
COc1ccc2c(c1)N(C)/C(=C/c1cccc[n+]1C)S2	0	9	-2	3895	-35	21	90*
CS(=O)(=O)Nc1ccc(C(=O)Nc2ccccc2Cl)cc1	6	3	-4	3381	-39	4.7	-3
CCCOc1ccc(Cc2nn3c(=O)/c(=C/c4ccco4)sc3nc2=O)cc1	.	.	-9	9753	4	.	.
CC(=O)Nc1cccc(C(=O)OCC(=O)c2ccc3c(c2)OCO3)c1	-1	-10	-3	?	-9	5.1	12
NC(=S)C1COc2ccccc2O1 (configuration not stated)	.	.	-5	3299	-16	.	.
CC(C)(CO)Nc1ccc([N+](=O)[O-])cc1[N+](=O)[O-]	2	3	1	2858	-8	-13	-8
CCN1CCN(CCCNC(=O)CCc2nc(-c3ccc(OC)cc3)no2)CC1	-8	3	1	2178	-9	3.6	3
CCOC(=O)N1CCC(NC(=O)CCC(=O)N2CC(C)Oc3ccc(C)cc32)CC1 (configuration not stated)	-15	1	2	3138	-11	2.4	-1
CC(C)Oc1ccc(C(=O)NC(=S)Nc2ccc(Cl)c(C(=O)O)c2)cc1	12	4	-1	4193	-23	7.3	6
CC(=O)Nc1cccc(C(=O)NN=Cc2ccc(F)cc2)c1	-1	7	.	.	.	-1.1	8
CCS(=O)(=O)n1nc(-c2ccc(Cl)cc2)nc1SCc1ccccc1	.	.	-9	.	.	1.2	7
C=CCOC(=O)C1=CC(c2ccc3c(c2)OCO3)CC(OCCCCO)O1 (configuration not stated)	17&9	6&8	.	.	.	8.7&4.8	13&-9
CCOC(=O)c1c(-c2ccccc2Cl)csc1NC(=O)c1cc(S(=O)(=O)N2CCOCC2)ccc1C	10	9	-2	2408	-12	2.7	42
Cc1nc2c(-c3ccc(Cl)cc3)cnn2c2c1CCC2	3	-5	-14	2675	-50	1.8	0
Cc1ccc(S(=O)(=O)N(C)C)cc1NC(=O)c1n[nH]c(=O)c2ccccc12	18	7	-5	3449	-12	5.3	3
Cc1ccc(Nc2nnc(SCC(=O)c3ccc(Br)s3)s2)c(C)c1	14	5	-21	2102	-14	2.8	-5
CCN(CC)C(=O)c1cncc(C(=O)N(CC)CC)c1-c1ccccc1	4	6	3	20311*	-15	2.7	1
COc1ccc(CN(C(=O)c2snc(C(N)=O)c2N)C(C(=O)NC2CCCC2)c2ccc(OC)c(OC)c2)cc1 (configuration not stated)	.	.	4	3238	-12	.	.
O=C(COC(=O)CCc1c[nH]c2ccccc12)NC1CCS(=O)(=O)C1 (configuration not stated)	-3	2	0	4382	-4	3.6	0
COc1ccc(S(=O)(=O)NCCN2CCNC2=O)cc1OC	-5	-6	4	.	.	0.6	5
N#Cc1cccc(S(=O)(=O)NCC(=O)OCC(=O)NCc2ccccc2)c1	9	1	.	3577	-3	2.7	3
Cc1ccc(Cl)cc1NC(=O)Cn1cccc1	9	3	-10	11310	-14	1.7	7
CC(C)(C)C(=O)Nc1cc(C(F)(F)F)ccc1N1CCOCC1	.	.	3	4167	-23	-1.7	8
COc1ccc(S(=O)(=O)n2nc(C)cc2C)c(C)c1C	2	8	-2	12604	-10	2.4	-10
O=C(NCc1ccc2c(c1)OCO2)c1cccc(Cl)c1	.	.	5	4708	-12	3.4	-3
c1ccc2c(c1)c1ccccc1n1c(-c3ccc4c(c3)OCO4)nnc21	2	0	-6	4595	-12	-1.9	-2
O/N=C1/C2C3CC4C5C3C1C5C1(OCCO1)C42 (configuration not stated)	.	.	16	10932	-6	.	.
O=C1CSc2ccc(C(=O)NCCC3=CCCCC3)cc2N1	3	4	4	23017*	-38	2.8	5
COc1ccc(OC)c(NC(=O)C2CCCN2C(=O)OCc2ccccc2)c1 (configuration not stated)	.	.	-2	6443	-14	-0.1	7
O=c1[nH]cnc2scc(-c3ccc(-c4ccccc4)cc3)c12	4	-2	-2	10156	-54	3.9	0
Cc1cc(NC(=O)COC(=O)CNS(=O)(=O)c2c(F)cc(F)cc2Br)no1	3	3	.	3411	-13	2.9	1
Cc1ccc(C)c(C(C)NC(=S)NCc2ccc(F)cc2)c1 (configuration not stated)	-7	5	2	5488	5	-9.1	-17
CCn1c(SCc2ccc([N+](=O)[O-])cc2)nnc1C(C)NC(=O)c1ccc(C)cc1 (configuration not stated)	9	3	12	2626	-4	1.0	6
COc1ccc(-c2nc(-c3ccc(Br)o3)no2)cc1	-1	6	-4	4117	-55	1.4	-2
O=C(Nc1nc2ccccc2[nH]1)NC1CCCCC1	-1	-7	-5	5262	-21	4.7	-7
CCOc1ccc(CC(=O)N2CCN=C2SCc2ccc([N+](=O)[O-])cc2)cc1	3	0	9	4055	3	-7.4	13
CC(=O)c1ccc(NC(=O)/C(=C\c2cccs2)NC(=O)c2ccco2)cc1	5	0	-9	2062	0	0.1	4
COc1cc(Cl)c(C)cc1NC(=O)COC(=O)C1=COCCO1	2	0	0	6562	-26	4.0	-7
Oc1ccccc1N=Cc1c(O)ccc2ccccc12	21	29	5	4428	-10	12	16

Later entries.
SMILES	Mtb hypoxia rep	Mtb hypoxia rep growth	BJeLR viability	Autofluor counter	PrP 5UTR inh	Sa RN4220 lethal	ugtP null kill
O=C(O)C1CCCCC1C(=O)NC(c1ccccc1)c1ccccc1 (configuration not stated)	-13	6	-10	5262	-31	7.6	0
Cc1ccc(Cl)cc1NC(C#N)c1ccccc1 (configuration not stated)	8	7	8	3362	-20	1.6	-5
COc1cccc(C(=S)N2CCCC2)c1OC	3	11	-2	4033	-5	2.8	3
Cc1cccc2cc3c(nc12)SC(=NCC1CCCO1)N(Cc1ccco1)C3 (configuration not stated)	.	.	-2	3561	-16	2.6	7
COc1ccc(NC(=O)c2cccc(F)c2)cc1Cl	9	13	-6	3361	-70	-7.0	-7
O=C(NCc1ccco1)Nc1ccc(Br)cc1	.	.	11	3791	-19	-0.7	1
Cn1c(=O)c2ncn(CC(=O)N/N=C/c3ccco3)c2n(C)c1=O	.	.	-3	2449	-15	.	.
Cc1cc(NCc2ccc(F)cc2Cl)n2nnnc2n1	.	.	-2	2138	-21	7.9	10
O=C(CN1CCCCCC1)Nc1cccc([N+](=O)[O-])c1	12	9	2	3551	-16	6.7	-3
CCCn1c(=O)c2ccccc2n2c(SCCOc3ccccc3)nnc12	0	4	-18	10297	-11	3.6	5
O=C(NC1CCCC1)C1CCCN1C(=O)Nc1ccccc1Cl (configuration not stated)	-1	3	-3	4586	-5	1.6	1
O=C(O)c1nn(CCOc2ccccc2F)c(=O)c2ccccc12	0	-6	-8	3875	-28	-1.1	-7
